Proteasome disasm: inhibitors of ATP-driven 26S proteasome dissociation, primary screen, biochemical, bead-based flow cytometry, GFP-tagged proteasome; anti-FLAG beads, GFP-proteasome disassembly; inhibition of disassembly, % (test concentration not listed); 24,000 tested, 0.2% active; AID 751, 2007;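 active means above 40%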;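 further: plate controls were ATP control with full disassembly for no effect and ATP-gamma-S intact proteasomes for full effect; higher percent means more bead fluorescence retained so stronger block of disassembly; stock transfer was 100 nL into about 10 µL; wells with too few beads may also be inconclusive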
VCAM-1 rise: enhancers of VCAM-1 display on endothelial cells, cell-based, plate reader, pooled HUVEC, TNFa stimulus (AID 455); HUVEC TNFa-induced VCAM-1 immunofluorescence, plate reader; numbers were filed only for top-ranked candidate wells; augmentation, % at 5 µM; 10,000 tested, 0.2% active;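 active means a compound raising TNF-alpha-driven VCAM-1 surface staining, with its hit status upheld on visual or statistical review; inactive means the rest, including hits rejected on review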;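 further: 0% = TNFa with vehicle and 100% = strongest image-checked hit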
Starred values were filed as active, the others as inactive; i = inactive; . = not tested or not shown. This is a subset, so the mix of outcomes need not match the whole.

Cn1c(=O)cc(OCC(=O)N2CCN(Cc3ccc4c(c3)OCO4)CC2)c2ccccc21
  Proteasome disasm = -1.9
  VCAM-1 rise = .

Cc1c2cnn(CC(=O)N3CCC4(CC3)OCCO4)c(=O)c2c(C)n1Cc1ccccc1F
  Proteasome disasm = -2.8
  VCAM-1 rise = .

CN1C(=O)N(C)C(=O)C2(Cc3ccccc3N3CCOCC32)C1=O (stereo not drawn)
  Proteasome disasm = 1.7
  VCAM-1 rise = i

O=C(c1cc(-c2ccccc2)nc2ccccc12)N1CCC2(CC1)OCCO2
  Proteasome disasm = -1.4
  VCAM-1 rise = .

CC(C)OC(=O)c1c(N)n(CC2CCCO2)c2nc3ccccc3nc12 (stereo not drawn)
  Proteasome disasm = 1.7
  VCAM-1 rise = i

CC(C)OCCCNC(=O)c1c(N)n(Cc2cccs2)c2nc3ccccc3nc12
  Proteasome disasm = -2.1
  VCAM-1 rise = i

CN1C(=O)C(Cc2cccc3ccccc23)C(=O)N(C)C1=O
  Proteasome disasm = 0.5
  VCAM-1 rise = i

CCOC(=O)C(O)(c1cn(C)c2ccccc12)C(F)(F)F (stereo not drawn)
  Proteasome disasm = -1.5
  VCAM-1 rise = .

Cc1sc2ncn(CC(=O)NCC(=O)N3CCC4(CC3)OCCO4)c(=O)c2c1C
  Proteasome disasm = -1.0
  VCAM-1 rise = .

COc1ccc(S(=O)(=O)Cc2ccc(C(=O)N3CCC4(CC3)OCCO4)o2)cc1
  Proteasome disasm = 1.6
  VCAM-1 rise = .

CC(C)(C)P(=O)(c1ccncc1)N1CCCC1 (stereo not drawn)
  Proteasome disasm = 2.2
  VCAM-1 rise = i

O=C(c1cc(-c2ccncc2)nc2ccccc12)N1CCC2(CC1)OCCO2
  Proteasome disasm = 2.1
  VCAM-1 rise = .

O=C(c1cc(-c2cccnc2)nc2ccccc12)N1CCC2(CC1)OCCO2
  Proteasome disasm = -0.1
  VCAM-1 rise = .

O=C(CN1CC(c2ccccc2)CC1=O)NCc1ccc(F)cc1 (stereo not drawn)
  Proteasome disasm = -0.5
  VCAM-1 rise = .

O=C(Cc1ccccc1)OC(COCc1ccccc1)CN1CCOCC1 (stereo not drawn)
  Proteasome disasm = -0.4
  VCAM-1 rise = i

A different layout for part of the listing above.
smiles | Proteasome disasm | VCAM-1 rise
Cc1sc2ncn(CC(=O)NCC(=O)N3CCC4(CC3)OCCO4)c(=O)c2c1C | -1.0 | .
COc1ccc(S(=O)(=O)Cc2ccc(C(=O)N3CCC4(CC3)OCCO4)o2)cc1 | 1.6 | .
CC(C)(C)P(=O)(c1ccncc1)N1CCCC1 (stereo not drawn) | 2.2 | i
O=C(c1cc(-c2ccncc2)nc2ccccc12)N1CCC2(CC1)OCCO2 | 2.1 | .

(further entries)
O=C(NCc1ccc(C(=O)N2CCC3(CC2)OCCO3)cc1)c1ccc2c(c1)OCO2
  Proteasome disasm = 0.0
  VCAM-1 rise = .

O=C(CN1CC(c2ccccc2)CC1=O)Nc1cccc(F)c1 (stereo not drawn)
  Proteasome disasm = -1.4
  VCAM-1 rise = .

O=C(CN1CCOCC1)c1ccc2cc[nH]c2c1
  Proteasome disasm = -0.5
  VCAM-1 rise = .

CC[C@@H](CO)NC(=O)[C@@H]1C=C2c3cccc4c3c(cn4C)C[C@H]2N(C)C1
  Proteasome disasm = 1.5
  VCAM-1 rise = i

O=c1c2ccccc2nc(CSc2ncnc3nc[nH]c23)n1-c1ccccc1
  Proteasome disasm = -4.7
  VCAM-1 rise = i

O=C(c1cc2ccccn2n1)N1CCC2(CC1)OCCO2
  Proteasome disasm = -2.2
  VCAM-1 rise = .

Cc1cnn(C2CCN(C)CC2)c1N
  Proteasome disasm = -0.2
  VCAM-1 rise = i

CC(=NCc1ccc2c(c1)OCO2)c1c(O)n(C)c(=O)n(C)c1=O
  Proteasome disasm = 0.8
  VCAM-1 rise = i

CC(=O)N1CC(=O)Nc2ccc(Cl)cc2C1c1ccc(F)cc1 (stereo not drawn)
  Proteasome disasm = 0.5
  VCAM-1 rise = i

Cn1c(=O)cc(SCC(=O)N2CCC3(CC2)OCCO3)c2ccc(Cl)cc21
  Proteasome disasm = 0.8
  VCAM-1 rise = i

COc1ccccc1OCCCn1cc(C(=O)c2ccco2)c2ccccc21
  Proteasome disasm = 2.5
  VCAM-1 rise = i

Cc1cc(NC(=O)COC(=O)c2c(C)nn(Cc3ccccc3)c2Cl)no1
  Proteasome disasm = -1.4
  VCAM-1 rise = i

CN1CC[C@@]23CCCC[C@@H]2[C@@H]1Cc1ccc(O)cc13
  Proteasome disasm = 0.2
  VCAM-1 rise = i

CC1CCCCN1CC(=O)c1ccc2cc[nH]c2c1 (stereo not drawn)
  Proteasome disasm = 5.8
  VCAM-1 rise = .

CC(C)=CCSc1nnc([C@@H](N)Cc2c[nH]c3ccccc23)o1
  Proteasome disasm = 1.7
  VCAM-1 rise = i

Cc1ccc(S(=O)(=O)N2CCCC(C(=O)N3CCC4(CC3)OCCO4)C2)cc1 (stereo not drawn)
  Proteasome disasm = -0.3
  VCAM-1 rise = .

Cc1c2cnn(CC(=O)N3CCC4(CC3)OCCO4)c(=O)c2c(C)n1Cc1ccc(F)cc1
  Proteasome disasm = -0.6
  VCAM-1 rise = .

CCOc1ccc(-n2c(CC)nc3ccccc3c2=O)cc1
  Proteasome disasm = 0.2
  VCAM-1 rise = .

N#Cc1ccccc1Cn1cc(C(=O)c2ccco2)c2ccccc21
  Proteasome disasm = 1.6
  VCAM-1 rise = i

Cc1ccc2nc(N3CCC(C(=O)N4CCC5(CC4)OCCO5)CC3)sc2c1
  Proteasome disasm = 0.3
  VCAM-1 rise = .

CCOC(=O)C1CCCCC12C(C#N)=C(N)Oc1n[nH]c(C)c12 (stereo not drawn)
  Proteasome disasm = -4.1
  VCAM-1 rise = i

CC12CN3CC(C)(CN(C1)C3c1ccncc1)C2=O (stereo not drawn)
  Proteasome disasm = -2.0
  VCAM-1 rise = .

C[N+]1(C)[C@@H]2CC[C@H]1CC(OC(=O)C(CO)c1ccccc1)C2 (stereo partly drawn)
  Proteasome disasm = 0.0
  VCAM-1 rise = i

O=C(c1cc2cc3ccc(Cl)cc3nc2o1)N1CCC2(CC1)OCCO2
  Proteasome disasm = 0.0
  VCAM-1 rise = .

Cc1ccc(CS(=O)(=O)Cc2ccc(C(=O)N3CCC4(CC3)OCCO4)o2)cc1
  Proteasome disasm = 0.2
  VCAM-1 rise = .

CC1OC(NCCc2ccccc2)C(O)C(O)C1O (stereo not drawn)
  Proteasome disasm = 12
  VCAM-1 rise = .

O=C1C2CCCN2C(c2cccnc2)N1c1ccc(Cl)c(Cl)c1 (stereo not drawn)
  Proteasome disasm = -1.6
  VCAM-1 rise = .

Cc1nc2cc(-c3ccc(Cl)cc3)nn2c(C)c1CCC(=O)N1CCC2(CC1)OCCO2
  Proteasome disasm = 0.1
  VCAM-1 rise = .

CCCCN1C(=O)NC(=O)C2(Cc3c(nc4c(C)cccn4c3=O)N3CCc4ccccc4C32)C1=O (stereo not drawn)
  Proteasome disasm = 3.9
  VCAM-1 rise = i

CN(C)C1(c2nnnn2-c2ccc(Cl)cc2)CCCCC1
  Proteasome disasm = 1.0
  VCAM-1 rise = .

c1cncc(C2CC(c3cccs3)n3ncnc3N2)c1 (stereo not drawn)
  Proteasome disasm = 0.3
  VCAM-1 rise = .

O=C(c1ccc(CS(=O)(=O)c2ccc(Br)cc2)o1)N1CCC2(CC1)OCCO2
  Proteasome disasm = 0.1
  VCAM-1 rise = .

O=C(CCCCCn1c(=S)[nH]c2ccccc2c1=O)N1CCC2(CC1)OCCO2
  Proteasome disasm = -6.5
  VCAM-1 rise = .

CCCCCCn1c(O)c(C=NC2CCN(Cc3ccccc3)CC2)c(=O)[nH]c1=O
  Proteasome disasm = 1.1
  VCAM-1 rise = i

COc1ccc(C2NCc3ccc4c(c3-n3cccc32)OCO4)cc1O (stereo not drawn)
  Proteasome disasm = 2.3
  VCAM-1 rise = i

CC12CCCCC1=[N+]([O-])CN2O (stereo not drawn)
  Proteasome disasm = 0.0
  VCAM-1 rise = i

O=C(c1ccc2c(c1)ncn2C1CCCCC1)N1CCC2(CC1)OCCO2
  Proteasome disasm = -0.8
  VCAM-1 rise = .

O=C(c1ccc2c(=O)n(Cc3ccc4c(c3)OCO4)c(=S)[nH]c2c1)N1CCC2(CC1)OCCO2
  Proteasome disasm = -0.5
  VCAM-1 rise = .

CC1=NOC2(C)Nc3ncnn3C(c3ccccc3)C12 (stereo not drawn)
  Proteasome disasm = -1.5
  VCAM-1 rise = i

COc1cc(C2NCc3ccccc3-n3cccc32)ccc1O (stereo not drawn)
  Proteasome disasm = -0.2
  VCAM-1 rise = i

Cc1ccc(C)c(NC2=NCCCS2)c1
  Proteasome disasm = 0.2
  VCAM-1 rise = i

Cc1ccc2nc(N3CCN(C)CC3)[nH]c2c1
  Proteasome disasm = -1.2
  VCAM-1 rise = i

Oc1ccc(CC2CC3CCN2CC3)cc1O (stereo not drawn)
  Proteasome disasm = 0.2
  VCAM-1 rise = .

O=c1[nH]c2ccccc2n1C1CCN(CCCC(c2ccc(F)cc2)c2ccc(F)cc2)CC1
  Proteasome disasm = 0.0
  VCAM-1 rise = i

CSc1ccc(CNC2CN3CCC2CC3)cc1 (stereo not drawn)
  Proteasome disasm = -0.2
  VCAM-1 rise = i

Already shown: entries from further up.
c1cncc(C2CC(c3cccs3)n3ncnc3N2)c1 (stereo not drawn)
  Proteasome disasm = 0.3
  VCAM-1 rise = .

O=C(c1ccc(CS(=O)(=O)c2ccc(Br)cc2)o1)N1CCC2(CC1)OCCO2
  Proteasome disasm = 0.1
  VCAM-1 rise = .

O=C(CCCCCn1c(=S)[nH]c2ccccc2c1=O)N1CCC2(CC1)OCCO2
  Proteasome disasm = -6.5
  VCAM-1 rise = .

CCCCCCn1c(O)c(C=NC2CCN(Cc3ccccc3)CC2)c(=O)[nH]c1=O
  Proteasome disasm = 1.1
  VCAM-1 rise = i

COc1ccc(C2NCc3ccc4c(c3-n3cccc32)OCO4)cc1O (stereo not drawn)
  Proteasome disasm = 2.3
  VCAM-1 rise = i

CC12CCCCC1=[N+]([O-])CN2O (stereo not drawn)
  Proteasome disasm = 0.0
  VCAM-1 rise = i

O=C(c1ccc2c(c1)ncn2C1CCCCC1)N1CCC2(CC1)OCCO2
  Proteasome disasm = -0.8
  VCAM-1 rise = .

(list continues)
Cc1oc(-c2ccc(Cl)cc2)nc1CS(=O)CC(=O)N1CCC2(CC1)OCCO2 (stereo not drawn)
  Proteasome disasm = -0.1
  VCAM-1 rise = .

O=C(Cn1ncc2c3ccccc3n(Cc3ccccc3)c2c1=O)N1CCC2(CC1)OCCO2
  Proteasome disasm = -0.5
  VCAM-1 rise = .

COc1ccc(CN2CCN(C(=O)Cc3ccccc3)CC2)c(OC)c1
  Proteasome disasm = 5.3
  VCAM-1 rise = i

COc1ccc(C2NCc3ccc4c(c3-n3cccc32)OCO4)cc1OC (stereo not drawn)
  Proteasome disasm = 0.8
  VCAM-1 rise = .

O=c1[nH]c(=O)n(Cc2ccco2)c(O)c1C=NCCCn1ccnc1
  Proteasome disasm = 0.5
  VCAM-1 rise = i

CCOC(=O)c1cccc([P+](=O)O)c1
  Proteasome disasm = 0.3
  VCAM-1 rise = i

COc1ccccc1/C=C1/C(=N/O)C2CCN1CC2
  Proteasome disasm = -0.5
  VCAM-1 rise = 82*

COc1cccc(C2=NOC(C(=O)N3CCC4(CC3)OCCO4)C2)c1 (stereo not drawn)
  Proteasome disasm = -1.1
  VCAM-1 rise = .

CC(C(=O)N1CCC2(CC1)OCCO2)C1Sc2ccccc2NC1=O (stereo not drawn)
  Proteasome disasm = -1.0
  VCAM-1 rise = .

Cc1cc(N2C(=O)C3CCCN3C2c2sccc2C)no1 (stereo not drawn)
  Proteasome disasm = -0.5
  VCAM-1 rise = .

CCOC(=O)C1C2NC(=O)N(Cc3ccccc3)C1(C)Oc1c(OC)cccc12 (stereo not drawn)
  Proteasome disasm = -1.3
  VCAM-1 rise = .

O=C(Cc1ccccc1)N1CCN(C/C=C/c2ccccc2)CC1
  Proteasome disasm = 7.8
  VCAM-1 rise = .

COc1ccc(N2C(=O)CC(N3CC=C(c4ccccc4)CC3)C2=O)cc1 (stereo not drawn)
  Proteasome disasm = -0.3
  VCAM-1 rise = .

O=C(CN1CC(c2ccccc2)CC1=O)Nc1ccc(F)cc1 (stereo not drawn)
  Proteasome disasm = 0.1
  VCAM-1 rise = .

CCn1c(=O)cc(OCC(=O)N2CCN(Cc3ccc4c(c3)OCO4)CC2)c2ccccc21
  Proteasome disasm = 2.2
  VCAM-1 rise = .

Cc1cc(C)c(C(=O)CN2CCOCC2)c(C)c1
  Proteasome disasm = 1.5
  VCAM-1 rise = i

CCOc1ccc(Br)c(C2(O)CC(C)N(C)CC2C)c1 (stereo not drawn)
  Proteasome disasm = -0.9
  VCAM-1 rise = i

O=C(CCCOc1ccc(Cl)cc1Cl)N1CCC2(CC1)OCCO2
  Proteasome disasm = 1.2
  VCAM-1 rise = i

CC(=O)c1cccc(NC2=NCC(C)S2)c1 (stereo not drawn)
  Proteasome disasm = -1.9
  VCAM-1 rise = .

O=C(C1CCCN(c2nnc(-n3cccc3)s2)C1)N1CCC2(CC1)OCCO2 (stereo not drawn)
  Proteasome disasm = -1.2
  VCAM-1 rise = i

N=C(N)c1c(O)n(C2CCCCC2)c(=O)n(C2CCCCC2)c1=O
  Proteasome disasm = 0.5
  VCAM-1 rise = i

Sorted by formula weight (falling): some entries from above
O=C(CCCOc1ccc(Cl)cc1Cl)N1CCC2(CC1)OCCO2
  Proteasome disasm = 1.2
  VCAM-1 rise = i

CCOc1ccc(Br)c(C2(O)CC(C)N(C)CC2C)c1 (stereo not drawn)
  Proteasome disasm = -0.9
  VCAM-1 rise = i

CC(=O)c1cccc(NC2=NCC(C)S2)c1 (stereo not drawn)
  Proteasome disasm = -1.9
  VCAM-1 rise = .
